Resorufin autofl: compound fluoresces in the resorufin spectral region; AID 588; Compound fluorescence, resorufin region 547/598 nm, buffer; active compounds read high; max dye-equivalent concentration, M; hit rate 0.04% among 59,000; active = above 10 nM dye equivalent; inconclusive = 1 to 10 nM; inactive = 1 nM or less; a few of its hits are not listed in these tables; also: highest value over a series up to 38 µM
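Compounds in 100 mM Tris, pH 8.0, incubated 15 min at room temperature, then fluorescence read at 547 nm excitation/598 nm emission. Signal converted to dye-equivalent concentration via an on-plate six-point resorufin standard curve, per compound concentration.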
AID923: qHTS Assay for Allosteric/Competitive Inhibitors of Caspase-1: Spectroscopic Profiling in AFC Spectral Region. hit rate 1.1% among 75,000. compound fluorescence, AFC spectral region (405/520 nm); almost no hit is shown here. AID 923, 2007. Potency, µM (doses to about 57.5 µM), inactives show at the top dose fluorescence increase, most hits filed as activators; active = well fitted activation curve with a large enough effect; inconclusive = small, poorly fitted or top-dose-only effect;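 also: potency is read from the fitted curve at half-maximal effect; 0% is about no effect; scaled to a free AFC standard on each plate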
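Baseline compound fluorescence (AFC region, 405 nm ex/520 nm em) taken from the intercept of kinetic reads with 50 nM caspase-1 and 5 uM Ac-WEHD-AFC; normalized to an on-plate AFC standard curve; compounds titrated up to 57 uM.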
A488 autofl: compound fluoresces in the A488 spectral region. compound autofluorescence, A488 spectral region, dye equivalency; active compounds read high. max dye equivalency, M. hit rate 0.1% among 59,000; active = above 10 nM dye equivalent; inconclusive = 1 to 10 nM; inactive = 1 nM or less; about half of its hits are not listed in these tables;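 also: highest value over a series up to 38 µM; compound alone in buffer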
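Read-out: relative fluorescence at 480/540 nm, expressed as Alexa 488 dye-equivalent concentration from a six-point A488 standard included per plate. Conditions: 100 mM Tris, pH 8.0; 15 min incubation, room temperature.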
TSHR ag: agonists of human thyroid stimulating hormone receptor; hit rate 0.48% among 73,000; HEK293-CNG-TSHR cells (CNG channel as cAMP sensor), membrane potential dye, cAMP; AID 926; P16473; Potency, µM (doses to about 57.1 µM), inactives show top-dose activation, usual class: activators; active = well fitted activation curve of enough size with the parental cells flat; inconclusive = any curve in the parental cells; inactive = parental cells flat and receptor cells flat or falling; also: potency is read from the fitted curve at half-maximal effect; % of control where 0% means no effect; weak receptor curves with flat parental cells got no call and are not listed
Target sequence (P16473 whole entry, looked up): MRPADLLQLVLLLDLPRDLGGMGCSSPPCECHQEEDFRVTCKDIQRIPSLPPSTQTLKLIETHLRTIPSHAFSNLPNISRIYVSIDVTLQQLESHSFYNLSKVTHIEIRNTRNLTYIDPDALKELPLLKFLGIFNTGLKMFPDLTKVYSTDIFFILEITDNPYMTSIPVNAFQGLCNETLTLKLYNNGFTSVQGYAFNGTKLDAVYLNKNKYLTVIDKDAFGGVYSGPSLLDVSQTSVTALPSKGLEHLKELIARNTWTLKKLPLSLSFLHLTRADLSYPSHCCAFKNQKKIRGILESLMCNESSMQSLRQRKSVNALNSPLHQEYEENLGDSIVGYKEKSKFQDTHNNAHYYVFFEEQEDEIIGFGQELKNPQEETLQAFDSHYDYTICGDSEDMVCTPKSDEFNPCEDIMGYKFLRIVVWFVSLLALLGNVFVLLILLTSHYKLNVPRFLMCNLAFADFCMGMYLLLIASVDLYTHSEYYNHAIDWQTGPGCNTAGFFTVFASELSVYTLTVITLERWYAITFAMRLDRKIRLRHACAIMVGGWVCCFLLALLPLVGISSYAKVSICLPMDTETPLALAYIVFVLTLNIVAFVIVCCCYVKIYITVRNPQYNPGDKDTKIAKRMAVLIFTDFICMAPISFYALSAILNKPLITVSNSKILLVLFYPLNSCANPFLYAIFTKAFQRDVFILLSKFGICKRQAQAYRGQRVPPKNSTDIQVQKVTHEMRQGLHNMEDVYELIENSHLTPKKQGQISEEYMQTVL
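HEK 293 cells stably expressing TSHR and a modified CNG channel, with CNG-only parental cells as counterscreen, were preloaded 60 min at room temperature with membrane potential dye containing 100 uM RO 20-1724. Compound exposure was 30 min, and depolarization was read as fluorescence at 590 nm.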
A647 fluor: A647 region autofluorescence | max dye-equivalent concentration, M | AID 592 | Compound fluorescence, A647 channel (570/671 nm), Tris buffer | 59,000 tested, under 10 active; active means above 1 µM dye equivalent; inconclusive means 0.1 to 1 µM; inactive means 0.1 µM or less;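 also: values scaled relative to a standard on each plate; highest value over a series up to 38 µM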
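Compounds pinned into 100 mM Tris pH 8.0, 15 min at room temperature, then read with 570 nm excitation/671 nm emission filters. Fluorescence normalized to an on-plate six-point Alexa 647 standard curve, giving dye-equivalent concentration per compound concentration.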
Numbers without * were called inactive; i = inactive; u = inconclusive; x = not tested or not shown; & = joins results of further samples; [ ] = remark or other dose.

nr | SMILES | Resorufin autofl | AID923 | A488 autofl
1 | O=C1NCN(c2ccccc2)C12CCN(C[C@H]1COc3ccccc3O1)CC2 | i | -1.6% | i
2 | Fc1ccccc1N1CCN(Cc2c(F)cccc2F)CC1 | i | 0.0% | i
3 | CCC(=O)Nc1cc(C(=O)N2CCC3(CC2)OCCO3)ccc1S(=O)(=O)c1ccc(C)cc1 | i | 0.1% | i
4 | CCCc1c(C)c2cc(C)ccc2[nH]c1=O | x | 1.0% | x
5 | CCOc1ccc(-n2c(O)c(C=Nc3ccc(N(CC)CC)cc3)c(=O)[nH]c2=O)cc1 | i | x | i
6 | C[C@]12CCC(=O)C=C1CC[C@@H]1[C@@H]2CC[C@@]2(C)[C@H]1CC[C@]2(C)O | x | -3.4% | x
7 | Cc1ccc2c(c1)C1CN(C)CCC1N2C(=O)Nc1ccc(Cl)cc1 (stereo not given) | i | 0.1% | i
8 | Cc1ccc(CN2CCN(C)CC2)c(C)c1 | x | -1.5% | x
9 | N#C/C=C/C#N | x | 1.6% | x
10 | CN1[C@@H]2CC(OC(=O)[C@@H](CO)c3ccccc3)C[C@@H]1[C@H]1O[C@H]12 (stereo not given in full) | i | -0.7%[11.5 µM] | i
11 | NCCCP(=O)(O)CCc1ccccc1 | i | 2.0% | i
12 | CN1[C@@H]2CC[C@H]1CC(O[C@@H](c1ccccc1)c1ccc(Cl)cc1)C2 (stereo not given in full) | i | -4.4%&-1.5% | i
13 | O=C1NC(=O)C2(Cc3ccccc3N3CCCC32)C(=O)N1Cc1ccccc1 (stereo not given) | i | 19% | i
14 | C=CCn1c(O)c(C(CC)=NCc2cc(OC)cc(OC)c2)c(=O)[nH]c1=O | i | 0.1% | i
15 | COc1ccc(OC)c(-n2c(O)c(C=NCc3ccc4c(c3)OCO4)c(=O)[nH]c2=O)c1 | i | -1.5% | i

nr | TSHR ag | A647 fluor
1 | u | 8.5e-09
2 | x | 3.2e-09
3 | 10% | 1.8e-08
4 | u | x
5 | x | 1.6e-09
6 | 11% | x
7 | u | 1.9e-09
8 | 7%[11.4 µM] | x
9 | -2% | x
10 | -2%[11.4 µM] | 3.2e-09
11 | -12% | 3.5e-08
12 | u | 9.8e-09
13 | -6% | 1e-09
14 | u | 5.9e-09
15 | -4% | 3.3e-09

Three compounds from above, sorted by length of the SMILES, ascending.
nr | SMILES | Resorufin autofl | AID923 | A488 autofl
4 | CCCc1c(C)c2cc(C)ccc2[nH]c1=O | x | 1.0% | x
1 | O=C1NCN(c2ccccc2)C12CCN(C[C@H]1COc3ccccc3O1)CC2 | i | -1.6% | i
12 | CN1[C@@H]2CC[C@H]1CC(O[C@@H](c1ccccc1)c1ccc(Cl)cc1)C2 (stereo not given in full) | i | -4.4%&-1.5% | i

nr | TSHR ag | A647 fluor
4 | u | x
1 | u | 8.5e-09
12 | u | 9.8e-09

Next part:
nr | SMILES | Resorufin autofl | AID923 | A488 autofl
16 | COc1ccc(-n2c(C)nc3cc(C(=O)N4CCC5(CC4)OCCO5)ccc32)cc1 | i | -1.0% | i
17 | O=C(Oc1ccccc1)N1CCC2(CC1)CN(C(c1ccccc1)c1ccccc1)C2 | i | 1.9% | i
18 | O=[N+]([O-])c1cc(C(F)(F)F)cc([N+](=O)[O-])c1Cl | x | -7.0% | x
19 | CN1CCN(c2c[nH]c(=O)[nH]c2=O)CC1 | i | 11% | i
20 | NC(=NCCC[C@H](N)C(=O)O)N[N+](=O)[O-] | x | -3.2% | x
21 | CCCC(=O)OCC[N+](C)(C)C | i | x | i
22 | CCNC[C@H](O)c1cccc(O)c1 | i | -0.4%[25.7 µM] | i
23 | c1ccc2c(c1)-c1cccc3cccc-2c13 | x | 8.9% | x
24 | CCOC(=O)CCN=Cc1c(O)n(-c2ccc(Br)cc2)c(=O)[nH]c1=O | i | 0.3% | i
25 | c1cc(N2CCCC3(CCNCC3)C2)ccn1 | i | -0.3% | i
26 | CCCn1c(C)c(C(=O)c2ccc3ccccc3c2)c2ccccc21 | i | -0.7% | i
27 | CC(C)(O)[C@H]1O[C@@H]2CC[C@]3(C)[C@@]4(C)c5[nH]c6ccccc6c5C[C@@H]4CC[C@]3(O)C2=CC1=O | x | -1.8% | x
28 | CC(=O)c1c(C)[nH]c(C(=O)N2CCC3(CC2)OCCO3)c1C | i | -2.3% | i
29 | Cc1cccc(-c2nc3ccccc3c(=O)n2-n2cccc2)c1 | x | 0.1% | x
30 | COC1=C(C)C(=O)c2c(c(COC(N)=O)c3n2C[C@@H]2[C@@H]3N2C)C1=O (stereo not given in full) | i | 2.3%[11.5 µM] | i

nr | TSHR ag | A647 fluor
16 | -2%[11.4 µM] | 3.5e-08
17 | u | 2.7e-08
18 | u | x
19 | -3% | 1e-09
20 | 4% | x
21 | x | 1e-09
22 | -8%[25.6 µM] | 9.2e-09
23 | u | x
24 | -1% | 1e-09
25 | u | 1e-09
26 | u | 9.6e-09
27 | -25% | x
28 | 1% | 3.9e-09
29 | u | x
30 | -1%[11.4 µM] | 1e-09

Other entries follow.
nr | SMILES | Resorufin autofl | AID923 | A488 autofl
31 | N#Cc1ccc(CN2CCC3(CC2)CCN(C(=O)Oc2ccccc2)CC3)cc1 | i | 2.1% | i
32 | CCOC(=O)c1cc2c(cn1)[nH]c1ccccc12 | i | x | i
33 | C(=NCCN1CCOCC1)=NC1CCCCC1 | i | 0.6%[11.5 µM] | i
34 | O=[N+]([O-])c1cc([N+](=O)[O-])c2ccccc2c1 | x | -1.2% | x
35 | Cc1nc2cc(F)ccc2n1C1CCN(Cc2nnnn2CCc2ccccc2)CC1 | i | 1.7% | i

nr | TSHR ag | A647 fluor
31 | u | 1.5e-08
32 | x | 1e-09
33 | 1%[11.4 µM] | 1.1e-08
34 | u | x
35 | u | 1e-09

Among those listed so far, 15 contain nitrogen in an aromatic ring:
nr | SMILES | Resorufin autofl | AID923 | A488 autofl
4 | CCCc1c(C)c2cc(C)ccc2[nH]c1=O | x | 1.0% | x
5 | CCOc1ccc(-n2c(O)c(C=Nc3ccc(N(CC)CC)cc3)c(=O)[nH]c2=O)cc1 | i | x | i
14 | C=CCn1c(O)c(C(CC)=NCc2cc(OC)cc(OC)c2)c(=O)[nH]c1=O | i | 0.1% | i
15 | COc1ccc(OC)c(-n2c(O)c(C=NCc3ccc4c(c3)OCO4)c(=O)[nH]c2=O)c1 | i | -1.5% | i
16 | COc1ccc(-n2c(C)nc3cc(C(=O)N4CCC5(CC4)OCCO5)ccc32)cc1 | i | -1.0% | i
19 | CN1CCN(c2c[nH]c(=O)[nH]c2=O)CC1 | i | 11% | i
24 | CCOC(=O)CCN=Cc1c(O)n(-c2ccc(Br)cc2)c(=O)[nH]c1=O | i | 0.3% | i
25 | c1cc(N2CCCC3(CCNCC3)C2)ccn1 | i | -0.3% | i
26 | CCCn1c(C)c(C(=O)c2ccc3ccccc3c2)c2ccccc21 | i | -0.7% | i
27 | CC(C)(O)[C@H]1O[C@@H]2CC[C@]3(C)[C@@]4(C)c5[nH]c6ccccc6c5C[C@@H]4CC[C@]3(O)C2=CC1=O | x | -1.8% | x
28 | CC(=O)c1c(C)[nH]c(C(=O)N2CCC3(CC2)OCCO3)c1C | i | -2.3% | i
29 | Cc1cccc(-c2nc3ccccc3c(=O)n2-n2cccc2)c1 | x | 0.1% | x
30 | COC1=C(C)C(=O)c2c(c(COC(N)=O)c3n2C[C@@H]2[C@@H]3N2C)C1=O (stereo not given in full) | i | 2.3%[11.5 µM] | i
32 | CCOC(=O)c1cc2c(cn1)[nH]c1ccccc12 | i | x | i
35 | Cc1nc2cc(F)ccc2n1C1CCN(Cc2nnnn2CCc2ccccc2)CC1 | i | 1.7% | i

nr | TSHR ag | A647 fluor
4 | u | x
5 | x | 1.6e-09
14 | u | 5.9e-09
15 | -4% | 3.3e-09
16 | -2%[11.4 µM] | 3.5e-08
19 | -3% | 1e-09
24 | -1% | 1e-09
25 | u | 1e-09
26 | u | 9.6e-09
27 | -25% | x
28 | 1% | 3.9e-09
29 | u | x
30 | -1%[11.4 µM] | 1e-09
32 | x | 1e-09
35 | u | 1e-09

Compound activity from PubChem BioAssay.

A portion of the library. The share of hits here may be higher or lower than overall.
